# High-throughput results (PubChem BioAssay)
# BJeLR lethal: BJeLR cell viability loss. BJeLR (HRASV12) viability, CellTiter-Glo ATP luminescence, 48 h; reference of the scale not given here. inhibition, % (no concentration beside the values). hit rate 0.17% among 300,000. AID 1554;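 active = replicate mean above 50%; inconclusive = above 50% but judged a plate artefact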;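 also: 50 nL library stock added to about 25 µL; numbers are from one replicate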
# PrP 5UTR inh: suppresses PrP 5' UTR mRNA reporter expression; cell-based PrP 5' UTR mRNA reporter, plate reader; inhibition, % (no concentration beside the values); hit rate 0.35% among 340,000; AID 488862;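 active = every replicate at 50% or more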;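 also: 0 = median of the neutral control wells; tested in H4 reporter cells; numbers are from one replicate; inactives centre near -14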
# Sa ugtP lethal: kills S. aureus RN4220 lacking UgtP; S. aureus RN4220 ugtP deletion, OD600 growth, 16 h; some inactives read as strong as hits; growth inhibition, % (test concentration not listed); hit rate 0.54% among 330,000; AID 1259309;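 active = z-score under -3 and OD600 up to 0.15 on both plates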;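 also: plate controls were untreated wells for no effect and antibiotic for full effect; wells of about 80 µL received 100 nL stock; the first replicate is given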
# Mtb hypoxia rep: Mtb hypoxia fluorescent reporter inhibition. fluorescence inhibition, % (no concentration beside the values). hit rate 0.1% among 300,000. M. tuberculosis hypoxia-regulated fluorescent reporter, fluorescence;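 active = 35 to 45% if threefold the growth effect, above 45% if 1.5-fold the growth effect; inactive = the rest, general growth blockers included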;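 also: wells of about 50 µL received 100 nL stock; 0% = vehicle wells and 100% = reference inhibitor wells; whole bacteria with a GFP reporter of the hypoxia response; strong numbers were not always called active; many hits fall short of the cut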
# Bead autofluor: flagged as autofluorescent in microsphere protease counterscreen; fluorescence intensity (test concentration not listed); compound autofluorescence counterscreen, microsphere flow cytometry; stronger effect = higher value; hit rate 3.1% among 360,000;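 active = at least 3 SD above the mean of all compounds, about 16000 in these data; inconclusive = too few beads counted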;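 also: 100 nL of 1 mM stock went into each well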
# RN4220 kill: kills Staphylococcus aureus RN4220 | S. aureus RN4220 growth, OD600, 16 h | hit rate 0.33% among 330,000 | inhibition, % (concentration not given with the values) | AID 1259311;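 active = z-score of -3 or lower and OD600 up to 0.18 on both plates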;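 also: plate controls were untreated cells for no effect and reference antibiotic for full effect; stock transfer was 100 nL into about 80 µL; one replicate is shown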
# Mtb hypoxia rep growth: also measured in Mtb hypoxia rep; calls as there; growth inhibition, %; measured here: M. tuberculosis growth (absorbance);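 0% = vehicle and 100% = reference antibiotic; read after six days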
# * hit, by the source's call; ? = inconclusive; . = not tested or not shown.
SMILES,BJeLR lethal,PrP 5UTR inh,Sa ugtP lethal,Mtb hypoxia rep,Mtb hypoxia rep growth,Bead autofluor,RN4220 kill
COC(=O)C1=C(C(=O)OC)[N+]2=C3N(C(=O)NC2(C)C)C(CO)C[C@@]32c3ccccc3N(Cc3ccccc3)C12 (stereo partly drawn),.,.,0,3,5,.,3.3
CCOC(=O)N1CCN(Cc2nc3cc([N+](=O)[O-])ccc3n2CC)CC1,-4,-23,12,7,0,3889,3.0
N#Cc1c(Cl)nsc1NC(=O)c1ccccc1,16,-25,81,.,.,2125,78
Cc1ccnc(SCc2cc(=O)c(OC(=O)c3ccco3)co2)n1,6,-2,3,4,-4,1935,1.5
COc1ccc(CN2C(=O)CCC2(C)C(=O)NCc2cccnc2)c(OC)c1 (stereo not drawn),-8,-12,5,-1,0,22905*,3.3
CCOc1ncccc1C(=O)Nc1cc(S(=O)(=O)N2CCCCCC2)ccc1OC,.,-3,5,1,-3,.,27
Cc1ccccc1Cn1ccc(NC(=O)c2nn(C)cc2[N+](=O)[O-])n1,-9,-5,0,2,0,2055,0.0
COc1ccc(F)cc1C(=O)C1CCCN(Cc2ccc(Sc3nncn3C)o2)C1 (stereo not drawn),-1,1,3,-8,-2,4563,-3.8
O=C(Nc1ccccc1)Nc1nc2ccccc2s1,7,-130,-4,4,4,4905,-0.5
Cc1nc(NCc2ccccn2)c2ccccc2n1,16,-22,8,9,4,8617,4.1
CC1(C)NC(=O)N(CC(O)COc2cccc(F)c2)C1=O (stereo not drawn),-1,16,-2,7,1,4201,4.0
COc1ccc(COC(=O)CNC(=O)C2CCCCC2)cc1F,.,1,6,8,7,3671,0.7
COc1cccc(CN2CCNCC2)c1,4,-1,.,.,.,3962,.
COc1cc(N)c(Cc2nccc3cc(OC)c(OC)cc23)cc1OC,3,-32,8,6,6,3937,5.7
COc1ccc(N(CCCN2C(=O)c3cccc4cccc(c34)C2=O)C(=O)c2ccncc2)cc1,-1,-33,1,-6,-2,4786,6.3
CCN(C(=O)CSc1nncn1-c1ccccc1)C1CCS(=O)(=O)C1 (stereo not drawn),-10,-11,4,6,2,?,3.1
CC(=O)c1cccc(NC(=O)C(C)OC(=O)CNC(=O)c2ccc(C)s2)c1 (stereo not drawn),5,-24,-3,3,2,4371,2.9
Cc1ccnc(NC(=O)CCCNC(=O)c2ccc(Cl)cc2)c1,-6,-45,0,9,-1,6202,5.0
CC(CC(=O)N(C(C)C)C(C)C)=NNC(=O)COc1ccc(Br)cc1Br,.,.,-6,-1,11,.,5.5
Cc1ccc(-c2c(C(=O)NN=Cc3cccnc3)nnn2-c2nonc2N)cc1,.,.,-1,1,2,.,2.3
Cc1ccccc1CN(c1ccc(C(=O)NCC2CCCO2)cc1)S(C)(=O)=O (stereo not drawn),17,-13,-2,6,0,9189,-1.6
CCOc1cc(S(=O)(=O)NCCc2ccc(OC)c(OC)c2)c(OCC)cc1-n1cnnn1,-18,-16,2,4,8,10269,3.1
COCC1CCN(C(=O)c2cc(COc3ccc(-n4cncn4)cc3)on2)C1 (stereo not drawn),-8,-15,6,4,6,5886,1.5
CC(=O)c1c(CC(=O)O)[nH]n(-c2nc3ccccc3s2)c1=O,12,.,-5,6,5,10690,5.3
O=C(NC=NO)C1=NOC(CNc2ncc(C(F)(F)F)cc2Cl)C1 (stereo not drawn),.,.,0,0,2,.,-2.9
Cc1ccc(OCC(=O)N2CCOCC2)c([N+](=O)[O-])n1,-17,-3,5,13,6,4183,2.2
O=S(=O)(c1ccc(Cl)c(F)c1)N1CCC(c2nc(-c3ccncc3)no2)CC1,18,4,-5,6,12,21243*,0.9
O=C(O)CCC(=O)NNC(=O)c1ccc(Br)cc1,-4,-9,.,.,.,1939,.
Cn1ncc(Br)c1NC(=O)c1cc(Cl)cc(Cl)c1,-4,-14,-9,16,12,3538,2.6
C=CCOC(=O)c1sc(NC(=O)c2ccc(OC)cc2)nc1C,-14,-59,5,-2,12,4658,4.2
Cc1[nH]n(-c2ccccc2)c(=O)c1C=NN(C)c1ccccc1,.,.,2,3,0,.,3.8
CCc1cc(=O)[nH]c(SCCCF)n1,3,-18,-5,1,6,4669,1.5
O=c1[nH]nc(C(F)(F)F)c2nnn(Cc3ccccc3Cl)c12,8,-28,2,-2,-10,4283,5.2
CC1CCCCN1C(=O)c1ccc(Br)o1 (stereo not drawn),-6,-20,1,13,-3,5777,2.8
CC(C)(C)n1nc(-c2ccc(Cl)cc2)c2c(N)ncnc21,3,26,4,2,0,3439,-2.2
O=C(CN1CCCCC1)Nc1ccccc1,-1,-3,-1,9,14,8579,0.9
CCOC(=O)c1sc(NC(=O)CC)c(C#N)c1C,6,-1,2,16,3,3446,4.0
Cc1nnc(SCc2ccccc2)n1CC1CCCO1 (stereo not drawn),10,-6,6,4,9,9197,5.1
CNNC(=O)C(=O)NNS(=O)(=O)c1ccccc1,6,-3,3,5,1,4533,7.4
COc1ccc(/C=N/NC(=O)C(C)n2nnc3ccccc32)cc1OC (stereo not drawn),10,-8,.,.,.,2683,.
CCNC(=S)NNC(=O)c1ccc(OC(F)F)cc1,5,-15,5,1,1,23106*,5.1
Cc1c(C2(O)C(=O)Nc3ccc(F)cc32)c(=O)n(-c2ccccc2)n1C (stereo not drawn),-4,-12,3,2,6,3534,3.6
O=C(Cc1n[nH]c(=O)c2ccccc12)Nc1cccc(S(=O)(=O)N2CCCC2)c1,-4,-11,15,12,11,5155,3.2
CC1Cc2ccccc2N1S(=O)(=O)c1cccc(C(=O)N2CC(=O)Nc3ccccc32)c1 (stereo not drawn),-14,-5,-5,-7,-7,3370,1.2
CCN(CC)CC(=O)NC1CCCc2c1cnn2-c1cc(F)cc(F)c1 (stereo not drawn),-7,-32,.,.,.,3699,.
CCc1nc(SCc2ccc([N+](=O)[O-])cc2)n[nH]1,0,-1,2,14,5,2015,5.8
C=CCOc1ccc2c(c1)c(=O)cc(C(=O)O)n2CC,8,10,9,1,4,4509,3.2
COc1cc(NC(=O)C2CCCO2)c(OC)cc1Cl (stereo not drawn),4,-5,1,.,.,4616,-1.4
N/C(=N\OC(=O)COc1ccc(Cl)cc1)c1cccnc1,-2,-41,-5,4,-1,11454,9.5
COc1ccccc1NS(=O)(=O)c1cccc(NC(=O)Nc2ccccc2)c1,2,-14,-19,10,1,2803,2.2
CC(C)CNC(=O)COC(=O)c1ccccc1SCC(=O)NCC(C)C,-8,-23,6,14,10,3951,7.1
O=C(CNC1CCCC1)Nc1ccc(S(=O)(=O)N2CCCCC2)cc1,-6,-14,4,10,3,3138,6.4
CCCN1CCC(=O)N([C@H](CN=[N+]=[N-])CC(C)C)CC1,-2,-23,.,.,.,4256,.
CC(O)[C@@]1(O)CCC2C3CCC4CC(O)CC[C@]4(C)C3=CC[C@@]21C (stereo partly drawn),.,.,16,7,11,.,8.9
O=C(CSCc1ccco1)NC1CCCC1,5,-24,.,.,.,2417,.
Cc1nc2ccc(S(=O)(=O)NCC(=O)NCCc3ccc(Cl)cc3)cc2s1,9,-9,1,11,6,5842,-1.7
CN(C)C(=O)C1CC1C(O)C(CO)NC(=O)C(Cc1ccccc1)NC(=O)OC(C)(C)C (stereo not drawn),.,.,-4,11,11,.,7.7
CCn1c(SCC(=O)c2ccccc2)nc2sc3c(c2c1=O)CCN(C)C3,13,-9,4,-9,-8,4594,0.7
O=C(CNc1ccc(Br)cc1)NC(=O)NC1CCCCC1,.,-2,-4,-12,4,7554,1.3
Fc1ccc(C=NNC(=S)Nc2ccc(Cl)cc2Cl)cc1,.,.,2,5,6,.,-4.7

# (continued)
SMILES,BJeLR lethal,PrP 5UTR inh,Sa ugtP lethal,Mtb hypoxia rep,Mtb hypoxia rep growth,Bead autofluor,RN4220 kill
O=C(CSc1nc2[nH]c(=O)cc(O)c2s1)Nc1cccc(Br)c1,.,-5,-4,-5,0,5746,4.7
O=C(O)CNC(=O)C1CCCN1C(=O)CNC(=O)OCc1ccccc1 (stereo not drawn),-4,-2,-2,-19,4,3667,-0.2
CCOc1ccccc1NC(=S)Nc1ccccc1F,-1,-11,-6,0,8,2926,-8.4
COc1cc(C2C3C(C)N(C)C(=O)N(C)C3N(C)C(=O)N2C)ccc1O (stereo not drawn),-16,-15,2,5,6,2299,2.3
Cc1cc(C)cc(C(=O)NCC(=O)N2CCC3(CC2)NCCc2[nH]cnc23)c1,8,-8,0,10,-2,5600,3.2
CCSc1nnc(COc2ccccc2)n1CC,6,-6,8,10,-6,3247,4.6
OCCn1c(CSc2nc3ccccc3n2CCO)nc2ccccc21,1,0,6,2,-3,7987,2.3
O=C(N1CCOCC1)N1CCCC(c2nc(-c3cccs3)no2)C1 (stereo not drawn),-1,-66,2,9,10,20689*,7.0
O=C1CCC(C(=O)N2CCN(c3cnccn3)CC2)CN1CCc1cccc(F)c1 (stereo not drawn),-6,-14,4,-3,7,5167,0.9
CCC(C)NC(=O)c1ccccc1NC(=O)Nc1ccccc1 (stereo not drawn),1,-12,1,1,3,4832,3.5
CC1(C)C2CCC1(C)C1(C2)NC(=O)c2ccccc2O1 (stereo not drawn),-2,-10,-4,11,-1,2412,7.1
CCCCCOC(=O)Cn1c(N2CCCCCC2)nc2c1c(=O)[nH]c(=O)n2C,2,0,-4,12,6,2728,-11
Cc1cccc(Nc2ncccc2C(=O)NCc2cccs2)c1C,-1,0,-12,2,3,4311,-7.4
CCN(CC(=O)Nc1c(F)cccc1F)C(=O)CCCOc1ccccc1,.,-21,2,6,7,4701,2.1
Cc1ccc2nc(SCC(=O)N(CC(C)C)c3c(N)n(Cc4ccccc4)c(=O)[nH]c3=O)[nH]c2c1,-2,-4,-1,9,2,3647,11
O=C(NC1=NCCS1)c1cccc(F)c1,-7,.,1,7,-1,6218,2.8
CC(C)c1ccc(/C=C(\c2nc3ccccc3[nH]2)S(=O)(=O)c2ccccc2)cc1,7,-8,7,0,-6,2231,32
CN(C)CC1CSCCC1(O)c1ccccc1 (stereo not drawn),3,-19,-5,7,9,3234,-1.5
O=C(O)COc1ccccc1C=NNC(=O)CSc1nc2ccccc2n1Cc1ccccc1Cl,.,.,5,15,3,.,5.9
O=C(O)CCSc1nnc(CNc2ccc(Cl)cc2)n1Cc1ccccc1,4,-66,5,-6,-10,2183,-10
CCN1CCN(Cc2c(O)ccc3c2O/C(=C\c2ccccc2)C3=O)CC1,-2,-3,5,-5,7,2614,1.0
Cc1cc(C)cc(N(CC(=O)NC(C)(C)C)C(=O)CCC(=O)Nc2ccccn2)c1,-2,-17,5,4,-4,3411,1.3
N#Cc1ccc(CN2CCN(C(=O)c3ccccc3)CC2)c(Cl)c1,-19,-29,1,9,7,21609*,5.1
COc1ccc(S(=O)(=O)N2CCC(C(=O)NC(C)CCc3ccccc3)CC2)cc1 (stereo not drawn),-2,-12,6,5,0,3285,0.2
Cc1ccc(S(=O)(=O)/N=C2/NC(=O)/C(=C/c3ccccc3)S2)cc1,6,-17,29,1,-2,4243,44
COc1ccc(C(=O)NCCNC(=O)c2cnccn2)cc1,-9,-18,3,-3,-3,3676,-0.9
COc1ccc2c(C)cc(SCC(=O)NCCN3C(=O)CSC3=O)nc2c1,8,-14,-8,2,-11,2227,-3.1

# Two entries picked at random from the list so far, as already listed:
SMILES,BJeLR lethal,PrP 5UTR inh,Sa ugtP lethal,Mtb hypoxia rep,Mtb hypoxia rep growth,Bead autofluor,RN4220 kill
C=CCOc1ccc2c(c1)c(=O)cc(C(=O)O)n2CC,8,10,9,1,4,4509,3.2
CCNC(=S)NNC(=O)c1ccc(OC(F)F)cc1,5,-15,5,1,1,23106*,5.1

# Record cards, from the list above:
# Results for Cc1ccc2nc(SCC(=O)N(CC(C)C)c3c(N)n(Cc4ccccc4)c(=O)[nH]c3=O)[nH]c2c1 → BJeLR lethal = -2; PrP 5UTR inh = -4; Sa ugtP lethal = -1; Mtb hypoxia rep = 9; Mtb hypoxia rep growth = 2; Bead autofluor = 3647; RN4220 kill = 11
# Results for Cc1cc(C)cc(N(CC(=O)NC(C)(C)C)C(=O)CCC(=O)Nc2ccccn2)c1 → BJeLR lethal = -2; PrP 5UTR inh = -17; Sa ugtP lethal = 5; Mtb hypoxia rep = 4; Mtb hypoxia rep growth = -4; Bead autofluor = 3411; RN4220 kill = 1.3
# Results for COc1ccc(C(=O)NCCNC(=O)c2cnccn2)cc1 → BJeLR lethal = -9; PrP 5UTR inh = -18; Sa ugtP lethal = 3; Mtb hypoxia rep = -3; Mtb hypoxia rep growth = -3; Bead autofluor = 3676; RN4220 kill = -0.9
